Source: PubChem (several laboratories)
LANA-H2A inh: blocks KSHV LANA binding to histone H2A/H2B; Q9QR71; cell-free LANA-H2A/H2B peptide, fluorescence polarization; inhibition, % (concentration not given with the values); hit rate 0.6% among 320,000; AID 2629; in the data active = inhibition mostly above about 10%, no sharp cut-off; inactive = mostly below about 6.7%;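 note: stock transfer was 7.5 nL into about 10 µL; 0% = median of vehicle wells and 100% = median of positive control wells; one replicate is shown; the record names a cut of 25% in any replicate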
Target sequence (Q9QR71 whole entry, looked up): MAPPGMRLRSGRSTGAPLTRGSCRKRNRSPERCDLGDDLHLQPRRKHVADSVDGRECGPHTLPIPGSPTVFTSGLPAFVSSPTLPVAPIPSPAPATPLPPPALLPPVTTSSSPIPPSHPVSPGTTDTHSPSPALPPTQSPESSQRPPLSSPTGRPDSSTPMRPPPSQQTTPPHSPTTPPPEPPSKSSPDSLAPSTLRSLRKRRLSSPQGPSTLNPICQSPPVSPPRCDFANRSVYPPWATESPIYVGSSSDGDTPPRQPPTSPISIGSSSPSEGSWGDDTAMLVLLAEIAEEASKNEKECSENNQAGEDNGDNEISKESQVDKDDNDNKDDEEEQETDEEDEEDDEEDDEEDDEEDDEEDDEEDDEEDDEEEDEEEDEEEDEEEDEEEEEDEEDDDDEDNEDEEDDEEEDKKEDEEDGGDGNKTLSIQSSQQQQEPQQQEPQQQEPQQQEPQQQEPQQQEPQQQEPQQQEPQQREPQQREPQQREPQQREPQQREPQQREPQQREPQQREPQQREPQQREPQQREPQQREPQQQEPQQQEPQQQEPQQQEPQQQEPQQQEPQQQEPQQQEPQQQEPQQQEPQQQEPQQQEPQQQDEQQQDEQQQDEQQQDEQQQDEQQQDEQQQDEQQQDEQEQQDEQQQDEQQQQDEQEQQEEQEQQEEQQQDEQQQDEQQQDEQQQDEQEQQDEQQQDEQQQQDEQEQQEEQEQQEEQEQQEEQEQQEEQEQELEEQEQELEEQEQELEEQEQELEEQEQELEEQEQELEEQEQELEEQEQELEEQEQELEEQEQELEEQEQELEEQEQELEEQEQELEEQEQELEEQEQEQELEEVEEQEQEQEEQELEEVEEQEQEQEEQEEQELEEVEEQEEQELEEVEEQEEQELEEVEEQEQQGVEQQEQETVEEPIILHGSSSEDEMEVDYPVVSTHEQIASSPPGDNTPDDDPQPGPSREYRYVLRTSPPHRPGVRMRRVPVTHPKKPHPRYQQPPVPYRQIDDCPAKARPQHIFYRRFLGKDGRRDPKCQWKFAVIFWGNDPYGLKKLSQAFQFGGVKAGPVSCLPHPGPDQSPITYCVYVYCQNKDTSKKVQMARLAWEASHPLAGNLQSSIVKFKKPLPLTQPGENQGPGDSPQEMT
Calb FLC: C. albicans growth modulation with fluconazole | AID 1979 | hit rate 0.57% among 300,000 | growth inhibition, % (no concentration beside the values) | C. albicans CaCi-2 (fluconazole-resistant clinical isolate) + fluconazole, Alamar Blue growth, 48 h;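 active = most replicates above 75%; inconclusive = exactly half above 75%; inactive = most below 75%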;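 note: all wells also contain fluconazole at 8 µg/ml as a sub-toxic cotreatment; 0% = median of DMSO wells and 100% = median of geldanamycin control wells; wells of about 8 µL received 7.5 nL stock; the first replicate is given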
T cruzi repl: blocks replication of Trypanosoma cruzi; inhibition, % (test concentration not listed); hit rate 1.4% among 300,000; T. cruzi beta-gal in NIH3T3, luminescence, 90 h;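 active = mean inhibition across valid replicates above about 55%, limit read from the data; inconclusive = mean below that limit but half or more replicates reach it; inactive = mean below it, under half of replicates reach it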;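 note: signal also drops with host cell toxicity which is not excluded here; 0% = plate median of DMSO wells and 100% = zero luminescence signal; higher percent means less beta-gal luminescence so fewer parasites; stock transfer was 50 nL into about 50 µL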
A1 inh: inhibitors of the anti-apoptotic protein A1, read as caspase activation; AID 2462; caspase activation, % (concentration not given with the values); MEF A1-2A-BIM cells, Caspase-Glo 3/7 luminescence, 3 h; percent of clofoctol response, vehicle zero; hit rate 0.066% among 330,000;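 active = over half of replicate activation scores above 10%, or exactly half above 10 with the replicate mean above 10; inconclusive = replicate mean below 10 yet half the replicates above 10; inactive = over half of replicates below 10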;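 note: wells of about 30 µL received 50 nL stock; many hits fall short of the cut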
Ecoli rRNA inh: selective bacterial rRNA inhibition in E. coli | E. coli WT GFP vs humanized-ribosome RFP mutants, fluorescence, 24 h; active compounds read low; DMSO median 0, no signal -100 | AID 720706 | hit rate 1.6% among 350,000 | GFP signal change (wild-type ribosome), % (concentration not given with the values);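 active = significant combined selectivity score with lowered wild-type GFP, culture density cut under 30%, mutant RFP and density less affected; inactive = any of these conditions unmet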; note: one replicate is shown; some compounds called inactive have numbers as strong as hits
Beta2AR agonist: human beta-2 adrenergic receptor agonism by FAP; Am2.2-beta2AR cells, FAP receptor internalization, flow cytometry; reference of the scale not given here; response, % (test concentration not listed); hit rate 0.43% among 340,000;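 active = response above a set limit, near 3 SD of response in nonfluorescent compounds, cut at about 42% in these data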;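 note: stock transfer was 100 nL into about 11 µL; a reference agonist was the positive control; negative values mostly stem from fluorescent compounds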
Beta cell apopt: beta cell apoptosis inhibition | INS-1E cytokine-induced death, ATP luminescence, 48 h; percent of positive-control rescue, neutral wells zero | protection from apoptosis, % (concentration not given with the values) | hit rate 0.8% among 300,000;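 active = all replicates at 75% or more, or half of them and the mean; inconclusive = half reach 75% but not the mean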;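 note: 0% = cytokine-treated negative control wells and 100% = positive control rescue; higher means more ATP so stronger rescue from cytokine killing; wells of about 40 µL received 100 nL stock; the first replicate is given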
ALR H2O2 inh: human ALR oxidase inhibition via reduced H2O2; AID 485317; inhibition, % (test concentration not listed); P55789; purified ALR, DTT oxidation, H2O2 HRP-luminol luminescence; hit rate 3.8% among 290,000;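 active = mean and each replicate at 75% or more; inconclusive = only one of the two met; inactive = neither met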;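 note: stock transfer was 7.5 nL into about 7.5 µL; 0% = neutral wells and 100% = wells with inactivated enzyme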
Ecoli rRNA inh OD600: second read-out of Ecoli rRNA inh, no call of its own (marks repeat the call); OD600 change, %; measured here: OD600 growth;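 optical density of the mix in the first replicate; 0 = DMSO median and -100 = no signal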
Ecoli rRNA inh RFP: recorded beside Ecoli rRNA inh, whose call it bears; RFP signal change, %; measured here: RFP humanized mutant strains;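 first replicate; 0 = DMSO median and -100 = no signal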
Numbers without * were called inactive; ? = inconclusive; . = not tested or not shown. Only part of the results is shown, so the mix of outcomes need not match the whole.

The opening ten entries, to show the layout:
SMILES	LANA-H2A inh	Calb FLC	T cruzi repl	A1 inh	Ecoli rRNA inh	Ecoli rRNA inh OD600	Ecoli rRNA inh RFP	Beta2AR agonist	Beta cell apopt	ALR H2O2 inh
CCc1ccc(Nc2ncc3c(n2)CC(c2ccc(OC)cc2)CC3=O)cc1 (centres undefined)	-4.1	5	22	1.1	.	.	.	6	4	-6
COc1ccccc1NC(=O)NC1(C(=O)N2CCCCC2)CCCCC1	0.0	6	-8	1.1	-2	6	0.9	4	-1	-2
CCOC(=O)C1CCN(C(=O)c2ccc3c(c2)OCCO3)CC1	-0.9	.	.	0.1	5	9	-4.6	4	0	2
Clc1ccc2nc(SCc3nnc(-c4ccccc4)o3)[nH]c2c1	-8.5	-6	-4	-0.8	.	.	.	-10	-8	-8
CCOc1cc(NC(=S)NCC2CCCO2)c(OCC)cc1NC(=O)c1ccc(OC)cc1 (centres undefined)	3.4	13	19	1.1	.	.	.	-5	0	.
CCC1(C)Cc2c(sc3nnn(CC(=O)Nc4ccccc4)c(=O)c23)CO1 (centres undefined)	0.8	-8	-5	0.7	-21	-42	-11	1	6	-3
COc1ccc(C(=O)NC(=S)Nc2ccccc2F)cc1	-0.3	-5	-10	-0.9	.	.	.	-5	-1	.
O=S1(=O)CCN(Cc2ccc(Cl)cc2)CC1	7.4	-1	-4	0.2	.	.	.	10	-7	-19
Cn1cnnc1SCC(C)(C)NS(=O)(=O)c1ccc(Cl)cc1	5.8	-3	-1	2.0	7	7	-1.7	5	-4	-23
COc1cc(/C=C(\C#N)C(=O)Nc2cccc3ncccc23)cc(OC)c1OC	2.7	10	-5	0.4	.	.	.	4	-4	-14

The whole of this part, repeating the preview:
SMILES	LANA-H2A inh	Calb FLC	T cruzi repl	A1 inh	Ecoli rRNA inh	Ecoli rRNA inh OD600	Ecoli rRNA inh RFP	Beta2AR agonist	Beta cell apopt	ALR H2O2 inh
CCc1ccc(Nc2ncc3c(n2)CC(c2ccc(OC)cc2)CC3=O)cc1 (centres undefined)	-4.1	5	22	1.1	.	.	.	6	4	-6
COc1ccccc1NC(=O)NC1(C(=O)N2CCCCC2)CCCCC1	0.0	6	-8	1.1	-2	6	0.9	4	-1	-2
CCOC(=O)C1CCN(C(=O)c2ccc3c(c2)OCCO3)CC1	-0.9	.	.	0.1	5	9	-4.6	4	0	2
Clc1ccc2nc(SCc3nnc(-c4ccccc4)o3)[nH]c2c1	-8.5	-6	-4	-0.8	.	.	.	-10	-8	-8
CCOc1cc(NC(=S)NCC2CCCO2)c(OCC)cc1NC(=O)c1ccc(OC)cc1 (centres undefined)	3.4	13	19	1.1	.	.	.	-5	0	.
CCC1(C)Cc2c(sc3nnn(CC(=O)Nc4ccccc4)c(=O)c23)CO1 (centres undefined)	0.8	-8	-5	0.7	-21	-42	-11	1	6	-3
COc1ccc(C(=O)NC(=S)Nc2ccccc2F)cc1	-0.3	-5	-10	-0.9	.	.	.	-5	-1	.
O=S1(=O)CCN(Cc2ccc(Cl)cc2)CC1	7.4	-1	-4	0.2	.	.	.	10	-7	-19
Cn1cnnc1SCC(C)(C)NS(=O)(=O)c1ccc(Cl)cc1	5.8	-3	-1	2.0	7	7	-1.7	5	-4	-23
COc1cc(/C=C(\C#N)C(=O)Nc2cccc3ncccc23)cc(OC)c1OC	2.7	10	-5	0.4	.	.	.	4	-4	-14
Cn1c(=O)[nH]c(=O)c2c1nc(NN)n2CCOc1ccccc1	2.9	13	-6	-0.1	6	8	-2.1	6	.	.
CC(=O)c1ccc(N(C(=O)Cn2nnc(-c3ccccc3)n2)C(C(=O)NC2CCCCC2)c2ccccn2)cc1 (centres undefined)	3.8	-23	9	-1.0	.	.	.	-2	-2	.
COC(=O)c1ccc(NS(=O)(=O)N(C)C)cc1	6.1	-11	-3	-3.1	.	.	.	5	0	.
Cc1cccc(NC(=O)c2cc(NC(=O)C3CCCCC3C(=O)O)ccc2N2CCOCC2)c1 (centres undefined)	-2.5	1	1	0.3	-13	-15	3.7	10	-2	11
CCC(C(=O)NC1CCCC1)N(C(=O)Cn1nnc(-c2ccc(C)o2)n1)c1cnc2ccccc2c1 (centres undefined)	0.3	-4	8	-0.8	.	.	.	-5	-2	1
Cc1ccc(NCc2nc3ccccc3n2C)cc1	0.6	4	-28	-0.4	.	.	.	3	.	-2
Cc1cccc(C(=O)NCC(=O)OCC(=O)N2CC3(C)CC2CC(C)(C)C3)c1 (centres undefined)	1.7	-17	0	0.5	5	0	-1.2	5	-5	1
CC(C)(C)c1cc[n+](-c2[nH]c(=O)sc2/C=N/NC([S-])=Nc2ccccc2)cc1	42*	-18	-14	-2.1	101	-4	2.0	4	-11	13
CCCNC(=O)CN(C)CC(=O)Nc1ccccc1C#N	-3.2	-15	-4	0.7	15	16	1.2	1	1	-2
CC(Sc1nnc(-c2ccc(Cl)cc2)n1N)C(=O)NCC1CCCO1 (centres undefined)	0.9	0	0	0.0	8	7	1.2	0	-2	-4
COc1ccc(OC)c(C2CC(c3c(-c4ccccc4)c4cc(Cl)ccc4[nH]c3=O)=NN2S(C)(=O)=O)c1 (centres undefined)	-4.6	0	25	0.2	.	.	.	-8	7	3
COc1ccc(CN2CC(C(=O)NCCN3CCN(c4ccccc4F)CC3)CC2=O)cc1 (centres undefined)	-1.9	?	11	-0.4	.	.	.	6	1	1
OCCNCCOc1ccc(Cl)c(Cl)c1	3.6	-10	-2	-0.1	10	0	-1.1	-8	-2	-3
CSc1nc2ccsc2c(=O)n1-c1ccccc1	4.5	-9	11	-0.1	-18	-19	-3.1	-7	-3	-9
Cc1ccc(NC(=O)NCCN2CCCCC2)cc1	0.9	4	-5	0.2	6	8	0.2	1	-4	-24
CCCNC(=O)CN(C)S(=O)(=O)c1c(C)cc(C)cc1C	-2.9	-1	4	1.8	.	.	.	-5	-4	.
Cc1ccsc1/C=N/NC(=O)c1c[nH]c2ccccc12	-5.3	-2	5	-0.5	.	.	.	8	.	-5
CCN(CC)c1ccc(/C=N/NC(=O)c2c(Cl)cnn2C)c(O)c1	-3.1	4	54	-1.0	.	.	.	11	95*	99*
C=CCc1cc2c(oc(=O)c3ccccc32)c(C)c1O	-7.5	17	-13	-0.3	-20	-31	12	1	0	3
O=C(c1ccccc1[N+](=O)[O-])N1CCN(Cc2ccc3c(c2)OCO3)CC1	5.9	-4	-13	0.2	.	.	.	-1	-4	-10
Cc1ccc(-c2cc3ccccc3nc2N2CCOCC2)cc1	-5.2	-30	30	0.2	-37	-30	-2.1	5	.	-8
O=C(c1ccc([N+](=O)[O-])cc1)N1C=CC(C(F)(F)F)=NCC1	-3.8	11	9	2.2	6	8	2.0	-4	.	-14
COc1ccc(C(C)=O)cc1CS(=O)(=O)CC(=O)O	4.0	-5	-9	-1.0	3	8	1.2	-2	-1	-2
CCOc1ccccc1CN1CCC(n2nccc2NC(=O)CCCc2ccccc2)CC1	-1.5	9	7	-0.2	-4	1	18	5	12	-4
O=C(COc1ccc(Cl)cc1Cl)Nc1ccc2nc3n(c(=O)c2c1)CCCC3	1.0	21	-1	0.8	.	.	.	-2	-3	-8
CC(C)(C)OC(=O)N1CCN(C(=O)[C@H](Cc2ccc(O)cc2)n2cc(CCO)nn2)CC1	-1.4	2	-13	1.7	6	9	-0.3	-3	-3	1
CCN(Cc1ccccc1)C(=O)CCS(=O)(=O)c1ccc2c(c1)CCN2C(C)=O	3.0	3	9	0.1	4	-1	3.8	-4	-6	-13
O=C(COC(=O)C1CCC1)NCc1ccccc1Cl	-2.3	-4	-4	-0.1	.	.	.	3	1	-4
COc1ccc(NC(=O)NC2CCCc3ccccc32)c(OC)c1 (centres undefined)	1.7	9	-6	0.2	6	7	3.1	-3	2	-5
CC12CN3CC(C)(CN(C1)C3c1cc3ccccc3[nH]1)C2=O (centres undefined)	-0.8	2	-6	0.3	.	.	.	6	4	-2
Cn1nc(N)c2c(-c3ccc(Cl)cc3)c(C#N)c(N)nc21	-3.3	30	14	0.2	.	.	.	-3	4	10
CCOc1cc2c(cc1OCC)C(C(=O)O)C(c1cc(Br)c(O)c(OC)c1)N(C)C2=O (centres undefined)	15*	.	.	-0.4	.	.	.	4	1	-41
Cc1ccc(CSC2=CS(=O)(=O)c3ccccc3N2)cc1	-0.4	0	10	1.5	.	.	.	9	5	.
O=C(NCCCN1CCOCC1)C(C(=O)NCCCN1CCOCC1)c1ncc(C(F)(F)F)cc1Cl	1.8	-3	-4	2.9	11	16	0.1	3	-3	.
N#Cc1cccc(NC(=O)COC(=O)CCc2nc3ccccc3c(=O)[nH]2)c1	4.7	5	-11	0.3	17	6	-0.4	0	4	.
c1ccc(Nc2cccc3c(Nc4ccccc4)cccc23)cc1	5.1	6	56*	2.1	12	23	-0.4	-6	27	.
Cc1ccc(N(C)S(=O)(=O)c2c[nH]c3ccc([N+](=O)[O-])cc23)cc1	.	8	-6	.	-44	-60	-18	1	.	24
N#C/C(=C\c1cccnc1)c1nc2c(s1)CCCC2	-0.4	28	29	-2.4	3	-2	7.2	-15	5	98*
Cc1cc(C)cc(NC(=O)Cn2c(-c3ccccc3Cl)nc3ccccc32)c1	-4.7	-7	-1	0.1	.	.	.	9	-2	-1
O=C1N(Cc2ccc(F)cc2)CCN1c1ccc(F)cc1	0.7	8	-9	-0.2	19	9	2.8	1	-6	.
COC(=O)CN1C(=S)N(c2ccc(Cl)cc2)C(=O)C1CC(=O)Nc1ccccc1 (centres undefined)	1.5	-16	11	0.5	-8	-1	-3.6	-5	-1	-1
COc1cc(CN2CCN(Cc3ccc(C)cc3)C(CCO)C2)cc(OC)c1O (centres undefined)	-0.1	27	-16	-0.9	18	0	1.7	6	2	2
CCC(C)NC(=O)Cn1cnc2sc(C)c(S(=O)(=O)N3CCN(c4ccccc4OC)CC3)c2c1=O (centres undefined)	0.7	-1	-1	0.3	5	10	-0.7	-1	-2	0
CCOC(=O)c1nc(-c2ccc(OC)c(OC)c2)cnc1C#N	1.9	18	-3	-0.1	-2	14	-1.6	-2	0	-5
CCN(CCn1cccn1)C(=O)c1cc(COc2c(F)cccc2F)on1	1.1	-5	-5	0.4	2	-1	-3.5	-7	-4	0
